KCNQ2 pot – potentiators of rat KCNQ2 potassium channel; CHO-K1 KCNQ2, FluxOR thallium flux fluorescence; active compounds read high; B-score at 10 µM; 310,000 tested, 0.54% active;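 active = fluorescence ratio B-score at least 3 SD of library B-scores, with initial fluorescence B-score within 3 SD, cut at about 5.3 in these data; same plate scores as AID 2156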;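 note: B-score of peak minus minimum over baseline fluorescence ratio after K+ and Tl+ stimulus; positive B-score means potentiation of KCNQ2 with more thallium influx and brighter signal; only the inactives scoring about 0 or higher are listed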
Target sequence (O88943 whole entry, looked up): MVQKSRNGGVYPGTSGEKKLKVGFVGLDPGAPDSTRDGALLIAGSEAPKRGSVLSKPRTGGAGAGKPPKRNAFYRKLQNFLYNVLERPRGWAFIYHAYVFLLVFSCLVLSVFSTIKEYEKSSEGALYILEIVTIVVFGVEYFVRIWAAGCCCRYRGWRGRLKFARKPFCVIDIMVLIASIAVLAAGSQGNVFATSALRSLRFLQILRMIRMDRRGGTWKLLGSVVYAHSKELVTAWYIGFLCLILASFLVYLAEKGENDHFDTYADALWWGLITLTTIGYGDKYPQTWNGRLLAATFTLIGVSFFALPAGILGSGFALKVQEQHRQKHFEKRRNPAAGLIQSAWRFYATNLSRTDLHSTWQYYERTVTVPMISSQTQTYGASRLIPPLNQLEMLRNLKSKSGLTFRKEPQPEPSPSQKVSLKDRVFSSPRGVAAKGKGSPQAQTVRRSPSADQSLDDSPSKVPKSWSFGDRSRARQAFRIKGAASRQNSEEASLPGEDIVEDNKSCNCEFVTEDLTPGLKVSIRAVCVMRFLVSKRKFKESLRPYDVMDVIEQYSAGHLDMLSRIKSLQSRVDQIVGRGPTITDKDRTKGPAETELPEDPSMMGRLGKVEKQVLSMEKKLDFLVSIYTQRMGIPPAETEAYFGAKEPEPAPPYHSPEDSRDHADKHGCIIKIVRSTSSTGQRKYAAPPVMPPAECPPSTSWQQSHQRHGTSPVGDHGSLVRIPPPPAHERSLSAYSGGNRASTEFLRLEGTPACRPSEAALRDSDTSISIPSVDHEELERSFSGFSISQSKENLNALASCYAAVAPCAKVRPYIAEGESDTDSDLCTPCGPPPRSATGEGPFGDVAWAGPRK
KCNQ2 pot baseline – further read-out of KCNQ2 pot, marked with its call; B-score; compound at 10 µM; measured here: initial fluorescence intensity artifact check;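 brightness before thallium and not channel activity; 0 = typical well and far values either way flag optical interference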
The depositor's hits bear a star.

SMILES | KCNQ2 pot | KCNQ2 pot baseline
COc1cc(C(=O)NCC(=O)N/N=C/c2ccc(-c3ccc([N+](=O)[O-])cc3)o2)cc(OC)c1OC | 0.67 | -1.4
CCOC(=O)C(C)Oc1ccc(C2NC(=O)NC(C)=C2C(C)=O)cc1Br (stereo unspecified) | 0.02 | 0.11
COC(=O)c1cnc(SCc2ccc([N+](=O)[O-])cc2)n1C | 0.13 | 0.11
Nc1ccc(Br)c2cccnc12 | 3.5 | 1.3
Cc1ccc(NC(=S)NC(=O)c2ccc(F)cc2)cc1S(=O)(=O)Nc1cccc(Cl)c1 | 0.76 | 1.4
COc1ccc(NC(=O)C2CCN(S(=O)(=O)c3cccc4nonc34)CC2)cc1 | 0.76 | 0.68
CC(=O)c1coc2ccc(OCC(=O)O)cc12 | 0.24 | 0.9
O=C(c1cnccn1)N1CCN(C/C=C/c2ccccc2)CC1 | 1.3 | -1
O=C(c1ccc(S(=O)(=O)N2CCOCC2)cc1)N(c1ccc(F)cc1)C1C=CS(=O)(=O)C1 (stereo unspecified) | 0.42 | 0.13
COc1cc2c(cc1NC(=O)c1cccc(S(=O)(=O)N(C)C)c1)oc1ccccc12 | 0.68 | 0.02
CCC1(C)Cc2ccccc2-c2[nH][nH]c(=O)c21 (stereo unspecified) | 0.41 | -1.4
O=C1CC(N2CCCc3ccccc32)C(=O)N1c1ccccc1 (stereo unspecified) | 0.67 | -2
O=c1cc(CSc2ccc(Cl)cc2)nc(-c2ccccc2)[nH]1 | 0.16 | 0.83
COc1ccc(/C(C)=N/NC(=O)c2nnn(-c3nonc3N)c2-c2cccs2)cc1 | 0.41 | -1.8
O=C(O)COc1ccc(Br)cc1/C=N\Nc1ccccn1 | 0.23 | -0.97
CC1CN(Cc2c(O)ccc3c(=O)c(-c4ccccc4)coc23)CC(C)O1 (stereo unspecified) | 0.82 | -0.1
COc1ccc(-c2nc(-c3ccccc3)c(-c3cc([N+](=O)[O-])ccc3C)[nH]2)cc1O | 0.69 | -0.1
CC(C)c1c(C(=O)N/N=C/c2ccccc2C(=O)O)nnn1-c1nonc1N | 1.5 | -0.94
CCOc1ccc2nc(NC(=O)COC)sc2c1 | 0.31 | -0.67
COc1ccc(NC(=O)C(C)N(C)Cc2ccc3ccccc3c2)cc1 (stereo unspecified) | 0.07 | -1.6

4 of the compounds above, field by field:
COC(=O)c1cnc(SCc2ccc([N+](=O)[O-])cc2)n1C
  KCNQ2 pot: 0.13	KCNQ2 pot baseline: 0.11
Nc1ccc(Br)c2cccnc12
  KCNQ2 pot: 3.5	KCNQ2 pot baseline: 1.3
Cc1ccc(NC(=S)NC(=O)c2ccc(F)cc2)cc1S(=O)(=O)Nc1cccc(Cl)c1
  KCNQ2 pot: 0.76	KCNQ2 pot baseline: 1.4
COc1ccc(NC(=O)C2CCN(S(=O)(=O)c3cccc4nonc34)CC2)cc1
  KCNQ2 pot: 0.76	KCNQ2 pot baseline: 0.68

Other structures follow:
SMILES | KCNQ2 pot | KCNQ2 pot baseline
CCN(CC(=O)NCc1ccc(F)cc1)C(=O)Cc1c(F)cccc1Cl | 0.54 | 1.2
O=C(Nc1nnc(-c2ccc(F)cc2)o1)c1ccc(S(=O)(=O)N2CCOCC2)cc1 | 0.64 | -2.4
CC1=C(C(=O)N2CCCCC2)C2(CCC(C)CC2)OC1=O (stereo unspecified) | 0.03 | -1.1
C=CCNC(=S)Nc1ccc(C)c(S(=O)(=O)N2CCCCC2)c1 | 0.41 | -0.04
COCC(C)NC(=O)Cc1ccc(F)cc1 (stereo unspecified) | 0.11 | 0.44
Cc1nc(-c2cccc(N)c2)cs1 | 1.4 | 2
COc1ccc(CCNC(=O)CN2CCC(C)CC2)cc1OC | 0.72 | 0.19
O=C(NCc1cccs1)C1CCCN(C(=O)Nc2ccccc2)C1 (stereo unspecified) | 1.6 | 0.64
CCC1=NN(S(=O)(=O)c2ccc(C)cc2)C(O)(C(F)(F)F)C1 (stereo unspecified) | 1.4 | -1.2
O=C(COC(=O)/C=C/c1ccc2c(c1)OCO2)NC1CC1 | 1.1 | 2.2
COc1ccc(N(CC(=O)Nc2ccccc2C(=O)O)S(=O)(=O)c2ccc(C)c([N+](=O)[O-])c2)cc1 | 0.96 | -0.83
CCOC(=O)N1CCC(=NNC(=O)c2cc3ccccc3cc2O)CC1 | 1.9 | 0.62
CC1(C)C2CC=C(/C=N/n3cnnc3)C1C2 (stereo unspecified) | 1.3 | 1.2
CC(C)CC(=O)N1CCN(Cc2ccc3c(c2)OCO3)CC1 | 0.86 | -0.2
CCOC(=O)c1sc(-c2ccc(OC)cc2)cc1N | 0.03 | 0.14
CCCn1c(SCC(=O)NC(C)C)nc2sc3c(c2c1=O)CCC3 | 0.5 | -1.6
Cc1ccccc1C(=O)N=c1ccn(-c2nc3ccccc3nc2NS(=O)(=O)c2ccccc2)cc1 | 0.1 | 0.03
O=C(CSc1nnc2c(n1)[nH]c1ccc(F)cc12)NC1CC1 | 0.13 | 0.37
Cc1ccc(Cl)cc1N(CC(=O)NC1CCCC1)C(=O)c1csnn1 | 0.4 | 0.46
CCOP(=O)(c1ccccc1)C(O)c1ccc([N+](=O)[O-])cc1 (stereo unspecified) | 0.91 | 0.5

Reformatted with two lines to a compound: part of the list above.
Values run as follows: KCNQ2 pot	KCNQ2 pot baseline
> COCC(C)NC(=O)Cc1ccc(F)cc1 (stereo unspecified)
 : 0.11	0.44
> Cc1nc(-c2cccc(N)c2)cs1
 : 1.4	2
> COc1ccc(CCNC(=O)CN2CCC(C)CC2)cc1OC
 : 0.72	0.19

Ordered by SMILES length (descending): part of the list above.
SMILES | KCNQ2 pot | KCNQ2 pot baseline
O=C(Nc1nnc(-c2ccc(F)cc2)o1)c1ccc(S(=O)(=O)N2CCOCC2)cc1 | 0.64 | -2.4
CCC1=NN(S(=O)(=O)c2ccc(C)cc2)C(O)(C(F)(F)F)C1 (stereo unspecified) | 1.4 | -1.2
CCCn1c(SCC(=O)NC(C)C)nc2sc3c(c2c1=O)CCC3 | 0.5 | -1.6
O=C(NCc1cccs1)C1CCCN(C(=O)Nc2ccccc2)C1 (stereo unspecified) | 1.6 | 0.64
COc1ccc(CCNC(=O)CN2CCC(C)CC2)cc1OC | 0.72 | 0.19

New compounds follow.
SMILES | KCNQ2 pot | KCNQ2 pot baseline
CCNc1[nH]c(=O)n(C)c(=O)c1N=O | 0.85 | -0.51
Cc1ccc(-c2cc(=O)c3ccc(Cl)cc3[nH]2)cc1 | 0.59 | 1.2
COc1ccc(CCNC(=O)CCC(=O)NC2CCCCC2)cc1OC | 3.9 | 0.31
CN(C)CCN1C(=O)C(=O)/C(=C(/O)c2ccccc2)C1c1ccccc1F (stereo unspecified) | 0.41 | 0.22
CC(=O)Nc1ccc(Nc2ccc3c4c(cc(=O)n3C)-c3ccccc3C(=O)c24)cc1 | 0.78 | -1.9
Cc1ccc(Cl)cc1NC(=O)c1ccccc1OCC(=O)Nc1ccc(Cl)cc1 | 1.1 | -2.2
CCCCNC(=O)c1ccc(CS(=O)(=O)Cc2ccccc2F)o1 | 0.01 | 0.06
Cc1ccc(OCc2cc(C(=O)NC3CCOC3)no2)cc1C (stereo unspecified) | 0.72 | 1.1
CCN(CC#CCC1(O)c2ccccc2-c2ccccc21)CCO | 0.01 | -1.8
CCOc1ccc(-c2cc(CCCC(=O)NCCc3ccccc3)no2)cc1 | 0.24 | 0.5
CCCC(CCC)C(=O)Nc1ccc2c(c1)N(C(=O)CCN1CCN(C)CC1)c1ccccc1CC2 | 0.81 | -2
O=C(Cc1ccccc1)N[C@@H](Cc1ccccc1)c1nc2ccccc2[nH]1 | 0.1 | -0.32
O=C(CN(C1CCCCC1)S(=O)(=O)c1ccccc1)NCc1cccnc1 | 0.97 | 0.02
Cc1cc(C)c(S(=O)(=O)N2CCCC(C(=O)NC3CCCC3)C2)c(C)c1 (stereo unspecified) | 2.5 | 0.1
CC(C)(C)NC(=O)c1ccc(COc2ccc(Cl)cc2Cl)o1 | 0.42 | -0.01
C=CCN(c1ccccc1)S(=O)(=O)c1cccc(C(=O)NCC2CCCO2)c1 (stereo unspecified) | 0.68 | -0.28
CCCCOCP(=O)(CC)COCCCC | 1.1 | 0.76
Cc1ccccc1CC(=O)Nc1cccnc1 | 0.5 | 1.1
CC(NC(=O)CCNC(=O)c1ccco1)c1ccccc1 (stereo unspecified) | 2.1 | 1.3
CCCCn1c(N)c(N(CC(C)C)C(=O)C2CC(=O)N(Cc3ccccc3)C2)c(=O)[nH]c1=O (stereo unspecified) | 2.1 | 0.73
COc1cc(OC)cc(C(=O)Nc2ccc3nc4n(c(=O)c3c2)CCCCC4)c1 | 0.02 | -0.3
Cc1ccc(NC(=S)N(CCN(C)C)C(C)c2ccco2)cc1Cl (stereo unspecified) | 2.2 | 0.44
CCOC(=O)C1CCN(c2c(NCc3ccc(C(=O)N(C)Cc4ccccc4)cc3)c(=O)c2=O)CC1 | 0.47 | 0.37
O=Cc1ccc(OC(=O)c2cc(Cl)nc3ccccc23)cc1 | 0.38 | -0.87
CC(=O)NC(C)C(=O)OCC(=O)c1ccc(Cl)s1 (stereo unspecified) | 0.09 | 0.33
C=CCc1ccc(OCCOCCOc2ccccc2[N+](=O)[O-])c(OC)c1 | 0.65 | 0.04
CCN(C(=O)C1CCCCC1)c1nnc(-c2cccnc2)s1 | 0.24 | 1.8
COc1cccc(-c2nc(CS(=O)(=O)CC(=O)N3CCCCC3)c(C)o2)c1 | 1.4 | -0.76
COC(=O)c1ccc(CSc2nnc(-c3ccccc3)n2C)o1 | 0.83 | 1.3
CN(C)CCCN(C(=O)c1ccc(S(=O)(=O)N(C)C)cc1)c1nc2ccc(F)cc2s1 | 0.62 | 0.18
COc1c(S(=O)(=O)NCCN2CCOCC2)ccc(Cl)c1Cl | 0.45 | 0.03
NS(=O)(=O)c1cccc(NS(=O)(=O)c2cccc(C(F)(F)F)c2)c1 | 0.55 | 2.7
Nc1nc2ccc(Oc3ccccc3)cc2s1 | 0.67 | -0.57
CCCCc1ccc(NC(=S)NCCc2ccc(F)cc2)cc1 | 0.96 | 1.4
Cn1c(=O)n(C)c2cc(C(=O)Nc3ccc(Br)cc3)ccc21 | 0.01 | 1.8
CCn1c(SCC(=O)Nc2nnc(C)s2)nnc1-c1ccco1 | 1.9 | -0.82
Cc1cc(C)n(CCc2nc(-c3ccc(C(C)(C)C)cc3)cs2)n1 | 0.99 | -0.22
Cc1oc2c(c1C(=O)NCc1cc(C(=O)O)co1)CCCC2 | 0.94 | -1.3
Cc1cccc(OC(=O)CCN2C(=O)C3C4C=CC(C5CC45)C3C2=O)c1C (stereo unspecified) | 0.45 | 0.73
Clc1cccc(Cl)c1Cn1c(-c2cccnc2Cl)nc2ccccc21 | 0.95 | -1.2
NNC(=O)c1ccc(COc2ccccc2)cc1 | 0.09 | -1.8
C=CCOC(=O)C1C(=O)CC(C)(O)C(C(=O)OCC=C)C1c1ccc(OCC)cc1 (stereo unspecified) | 0.07 | 0.04
O=C(CSC(=S)N1CCOCC1)Nc1nc(=O)c2ccccc2s1 | 1 | -1.1
Oc1ccc(/C=N/Nc2cc(N3CCOCC3)nc(N3CCOCC3)n2)cc1O | 1.2 | -0.89
O=C(NCc1ccco1)c1c(F)cccc1Cl | 0.04 | -0.03
CCC1(CC)NC(=O)N(CC(=O)OC(C)C(=O)Nc2ccc(NC(C)=O)cc2)C1=O (stereo unspecified) | 1.7 | 0
COc1ccc(OCc2nn3c(-c4ccccn4)nnc3s2)cc1 | 0.63 | -0.8
O=C(CSc1nc2ccccc2[nH]1)N/N=C/c1ccco1 | 0.86 | 0.63
CCOC(=O)C1=C(N)OC2=C(C(=O)CCC2)C1c1cccs1 (stereo unspecified) | 0.57 | 0.72
COc1ccccc1C(=O)NC(=O)COC(=O)c1ccc(C)o1 | 0.93 | -4
CCC(=O)Nc1ccc(Cl)c(NC(=O)c2cccnc2)c1 | 0.78 | 1.1
O=C(Nc1c(-c2cccs2)nc2ccccn12)c1ccc2ccccc2c1 | 0.1 | 0
CN(C(=O)C1CCN(c2ncnc3c2nc2n3CCCCC2)CC1)C1CCCCC1 | 0.1 | -3.6
COc1cccc(NC(=S)NNC(=O)c2ccccc2OC(F)F)c1 | 0.05 | -0.11
COc1ccc(Cc2n[nH]c(=O)c3ccccc23)cc1OC | 0.22 | 1.9
O=C(N/N=C\c1cccnc1)C1c2ccccc2Oc2ccccc21 | 0.21 | -1.4
Cc1nc(N2CCOCC2)[nH]c(=O)c1C | 1.1 | 1.8
Cc1ccc2nc(NC(=O)CN3C(=O)NC4(CCCC4)C3=O)sc2c1 | 0.58 | -0.15
COc1ccc(C(=O)COC(=O)c2cnc(C)cn2)c(OC)c1 | 1.2 | 0.09
CCC(C)NC(=O)C(=O)NCc1ccncc1 (stereo unspecified) | 0.5 | 1.8

Additional records:
SMILES | KCNQ2 pot | KCNQ2 pot baseline
CNCc1ccccc1Sc1cccc2ccccc12 | 2.2 | -1.1
CC(C)(CN1CCN(C(c2ccccc2)c2ccccc2)CC1)NS(=O)(=O)c1ccccc1 | 4.1 | -0.55
CC(=Nc1ccccc1)C1=C(O)COC1=O | 0.01 | -0.88
CCC(NC(=O)NCc1ccc2c(c1)OCO2)(C(F)(F)F)C(F)(F)F | 3.2 | 0.11
Cc1ccn2cc(-c3cnoc3C)nc2c1 | 0.1 | 0.98
O=C(CC1NCCNC1=O)Nc1cc(Cl)cc(Cl)c1 (stereo unspecified) | 0.15 | 0.04
CCOC(=O)C1CCN(S(=O)(=O)c2ccc(Cl)nc2)CC1 | 0.18 | -2
O=C(NCC1CCCO1)c1cc2cc(Cl)ccc2[nH]1 (stereo unspecified) | 0.38 | 0.05
COc1ccc(-c2csc(NC(=S)NC(=O)c3ccco3)n2)cc1Br | 5.7* | -0.08*
CC(=O)c1c(C)[nH]c(C(=O)Nc2ccc(C)c(S(=O)(=O)N(C)C)c2)c1C | 0.36 | -1.7
Fc1ccc(C2=Nc3cccc4cccc(c34)N2)cc1 | 1.1 | -0.02
Cc1nnc(SCC(=O)NCc2ccccc2)n1-c1ccccc1 | 1.3 | -0.89

An excerpt; rates above refer to the full screens.
